# High-throughput results: PubChem BioAssay, several laboratories
# HNF4A DNA FP: change in binding of human HNF4 alpha to DNA; HNF4a-FITC DNA binding, fluorescence polarization, 1 h; activity change, % at 10 µM; 360,000 tested, 0.3% active; P41235; in the data active means activity change above about 30%, passing the limit was not always enough;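 further: controls were the assay level and a saturating level of protein; the project sought stronger binding though the title names inhibitors; some compounds called inactive have numbers as strong as hits; positive values seem to mean higher polarization but the record does not say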
# Target sequence (P41235 whole entry, looked up): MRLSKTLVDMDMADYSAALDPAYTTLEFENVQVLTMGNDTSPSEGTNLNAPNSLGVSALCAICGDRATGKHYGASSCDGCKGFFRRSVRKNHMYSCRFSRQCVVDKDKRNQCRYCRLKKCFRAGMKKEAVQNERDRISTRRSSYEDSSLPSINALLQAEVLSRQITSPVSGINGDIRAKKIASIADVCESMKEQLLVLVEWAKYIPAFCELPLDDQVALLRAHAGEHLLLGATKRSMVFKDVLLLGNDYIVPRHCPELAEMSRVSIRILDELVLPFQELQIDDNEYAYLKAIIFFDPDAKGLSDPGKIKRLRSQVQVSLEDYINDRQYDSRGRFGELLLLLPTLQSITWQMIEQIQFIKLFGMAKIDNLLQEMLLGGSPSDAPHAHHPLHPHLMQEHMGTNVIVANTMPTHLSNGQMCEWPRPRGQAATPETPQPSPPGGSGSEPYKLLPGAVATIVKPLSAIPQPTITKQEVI
# Ecoli growth: blocks Escherichia coli growth | 330,000 tested, 0.21% active | OD600 absorbance (concentration not given with the values) | OD600, 23 h; hits give low values;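 active means OD600 absorbance below the run mean of sample wells minus 3.6 SD, in any replicate, cut at about 0.56 in these data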;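 further: stock transfer was 300 nL into about 60 µL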
# AF4-AF9 inh: inhibitors of human MLL-AF4/AF9 interaction; P42568; AlphaScreen, biotin-AF4 peptide binding to FLAG-AF9; inhibition, % at 10 µM; 350,000 tested, 0.47% active; AID 651704;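 active means every replicate reaching a set inhibition limit, whatever the replicate mean, cut at about 25% in these data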;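 further: 0% = plate neutral control median and 100% = total signal loss; the record names both 10 and 1 µM as test concentration; the first replicate is given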
# FGF22 binding: FGF22 (human) thermal shift binding. Q9HCT0. recombinant FGF22 thermal shift, SYPRO orange fluorescence; percent of sucrose octasulfate shift, DMSO zero. calls only at 9.99 µM. 340,000 tested, 1.5% active. AID 651658;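 active means melting point raised past a set limit in the mean and every replicate; three in four hits are not shown here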
# Target sequence (Q9HCT0 whole entry, looked up): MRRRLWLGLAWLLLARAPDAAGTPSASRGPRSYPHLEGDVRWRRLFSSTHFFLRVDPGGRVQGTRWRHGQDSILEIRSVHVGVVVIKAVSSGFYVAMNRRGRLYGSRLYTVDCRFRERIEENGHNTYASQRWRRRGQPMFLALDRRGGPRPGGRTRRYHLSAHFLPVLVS
# rRNA inh HTS: inhibits bacterial ribosomal RNA function over humanized ribosomes; E. coli WT GFP vs humanized-ribosome RFP mutants, fluorescence, 24 h; hits give low values; DMSO median 0, no signal -100; 350,000 tested, 1.6% active; GFP signal change (wild-type ribosome), % (no concentration beside the values);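 active means significant combined selectivity score with lowered wild-type GFP, culture density cut under 30%, mutant RFP and density less affected; inactive means any of these conditions unmet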; further: one replicate is shown; some compounds called inactive have numbers as strong as hits
# ALR inh: human ALR oxidase inhibition via reduced H2O2; P55789; purified ALR, DTT oxidation, H2O2 HRP-luminol luminescence; inhibition, % (test concentration not listed); 290,000 tested, 3.8% active; AID 485317;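 active means mean and each replicate at 75% or more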;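 further: stock transfer was 7.5 nL into about 7.5 µL; 0% = neutral wells and 100% = wells with inactivated enzyme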
# Target sequence (P55789 whole entry, looked up): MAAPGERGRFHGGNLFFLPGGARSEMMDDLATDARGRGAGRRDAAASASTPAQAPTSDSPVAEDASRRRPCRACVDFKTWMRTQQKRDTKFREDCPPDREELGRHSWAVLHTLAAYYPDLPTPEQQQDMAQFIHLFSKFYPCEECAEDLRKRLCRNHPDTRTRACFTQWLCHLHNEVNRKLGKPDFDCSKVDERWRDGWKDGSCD
# Vif TR-FRET: inhibitors of Vif binding to APOBEC3G peptide, primary screen, biochemical, TR-FRET, GST-Vif 1-94, biotin-A3G peptide, dose response retest (AID 1117319). TR-FRET GST-Vif / biotin-A3G peptide binding; higher % means a stronger effect; test concentration not given here; strong numbers were not always called active. inhibition, %, or IC50 in µM where a hit was titrated. 260,000 tested, 0.57% active;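 active means above the screen mean plus three standard deviations and confirmed in dose response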;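 further: Vif residues 1-94 fused to GST binding biotinylated APOBEC3G peptide 110-148; 0% = full assay without inhibitor and 100% = GST in place of GST-Vif; retest series ran down from 100 µM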
# rRNA inh HTS OD600: also measured in rRNA inh HTS; calls as there; OD600 change, %; measured here: OD600 growth;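 optical density of the mix in the first replicate; 0 = DMSO median and -100 = no signal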
# rRNA inh HTS RFP: further read-out of rRNA inh HTS, marked with its call; RFP signal change, %; measured here: RFP humanized mutant strains;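 first replicate; 0 = DMSO median and -100 = no signal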
# The depositor's hits bear a star; i = inactive; x = no result given; & = joins results of further samples. Some of the compounds tested (hit frequency here may not be typical).
# Letters: A = HNF4A DNA FP; B = Ecoli growth; C = AF4-AF9 inh; D = FGF22 binding; E = rRNA inh HTS; F = rRNA inh HTS OD600; G = rRNA inh HTS RFP; H = ALR inh; I = Vif TR-FRET
(1) COc1ccccc1N1CCN(S(=O)(=O)c2cc(-c3cc(C)no3)ccc2C(C)C)CC1
  A = -2.1 | B = 0.68 | C = -0.4 | D = i | E = 9 | F = 12 | G = 1.5 | H = -5 | I = 1%
(2) C[C@@H]1CN([C@@H](C)CO)C(=O)c2cc(NS(=O)(=O)c3ccccc3)ccc2O[C@@H](C)CCCCO[C@H]1CN(C)S(=O)(=O)c1cccs1
  A = x | B = x | C = -3.6 | D = i | E = -1 | F = 1 | G = -1.2 | H = x | I = x
(3) CCCCn1c(=O)c(CCC(=O)OC(C)C(=O)Nc2cccc(Cl)c2Cl)nc2ccccc21 (stereo not drawn)
  A = -0.8 | B = 0.76 | C = 2.0 | D = i | E = x | F = x | G = x | H = -4 | I = x
(4) COc1cc(C(=O)OCC(=O)NC(C)CCc2ccccc2)cc(OC)c1OC (stereo not drawn)
  A = -1.6 | B = 0.68 | C = -0.2 | D = i | E = 1 | F = -5 | G = 2.4 | H = -3 | I = -7%
(5) Cn1cc(S(=O)(=O)N2CCCC(C(=O)O)C2)cn1 (stereo not drawn)
  A = 4.6 | B = 0.69 | C = -0.4 | D = i | E = 14 | F = 16 | G = 0.9 | H = -5 | I = 5%
(6) CCC(c1nnnn1Cc1ccccc1)N(Cc1ccco1)Cc1cc2cc(OC)ccc2[nH]c1=O (stereo not drawn)
  A = 0.5 | B = 0.73 | C = x | D = x | E = x | F = x | G = x | H = 2 | I = 7%&7%
(7) CN(CCOc1ccc(Cl)cc1)C(=O)CN1C(=O)NC2(CCCC2)C1=O
  A = -1.5 | B = 0.67 | C = 2.3 | D = i | E = -2 | F = 3 | G = -0.1 | H = -1 | I = -5%
(8) COc1ccc(CN2[C@@H](CC(=O)O)c3ccccc3S2(=O)=O)cc1
  A = 1.7 | B = x | C = -13 | D = i | E = -2 | F = 8 | G = -8.5 | H = 3 | I = x
(9) Nc1ncnc2c1ncn2[C@@H]1O[C@H](COP(=O)(O)O)[C@@H](O)[C@H]1O
  A = -1.7 | B = x | C = -1.9 | D = i | E = x | F = x | G = x | H = -38 | I = x
(10) CCOC(=O)Cc1csc(NC(=O)CS(=O)(=O)Cc2ccccc2)n1
  A = 1.8 | B = 0.68 | C = x | D = x | E = x | F = x | G = x | H = x | I = 0%
(11) Brc1ccc2oc3c(N4CCOCC4)ncnc3c2c1
  A = -1.0 | B = 0.65 | C = -33 | D = i | E = 5 | F = 6 | G = 2.3 | H = x | I = -118%
(12) C/C(N)=C(/C#N)C(=O)COC(=O)c1cc(S(=O)(=O)N2CCCCC2)ccc1C
  A = -3.2 | B = 0.72 | C = x | D = x | E = x | F = x | G = x | H = 1 | I = 4%
(13) O=C(Nc1ccc2oc(-c3ccncc3)nc2c1)c1ccccc1
  A = 3.3 | B = 0.72 | C = -1.9 | D = i | E = 9 | F = 5 | G = 0.2 | H = -1 | I = 24%
(14) COc1ccccc1C(=O)NCCc1c(C)[nH]c2c(C)ccc(F)c12
  A = -0.1 | B = 0.68 | C = -1.4 | D = i | E = 9 | F = 5 | G = 3.0 | H = 1 | I = x
(15) C[C@@H]1CN([C@@H](C)CO)C(=O)c2cccc(NS(=O)(=O)c3ccc(Cl)cc3)c2O[C@H]1CN(C)S(=O)(=O)c1ccccc1
  A = x | B = x | C = -0.4 | D = i | E = -5 | F = -16 | G = 1.8 | H = x | I = x
(16) CC(C)N=Cc1c(O)[nH]c2ccccc12
  A = 2.4 | B = 0.7 | C = x | D = x | E = x | F = x | G = x | H = 99* | I = 5%
(17) Cc1cc(N2CCC(C)CC2)nc(-c2ccccc2O)n1
  A = 4.5 | B = 0.67 | C = -44 | D = i | E = -10 | F = -3 | G = -0.4 | H = -16 | I = -7%
(18) CCCNC(=O)C1(C)CCCN(Cc2ccc(-c3ccccn3)cc2)C1 (stereo not drawn)
  A = 5.6 | B = x | C = 2.3 | D = i | E = 17 | F = 33 | G = 2.0 | H = x | I = x
(19) CCc1ccc2c(c1)C(c1ccc(N3CCOCC3)cc1)=NNC(c1ccncc1)=N2
  A = 6.8 | B = 0.64 | C = 16 | D = x | E = -18* | F = -12* | G = 5.2* | H = x | I = 3%
(20) O=C(Cc1ccccc1)c1ccccn1
  A = 74 | B = x | C = 2.3 | D = i | E = 3 | F = 11 | G = 0.8 | H = x | I = 17%
(21) Cn1c2ccccc2c(=O)c2c(=O)n(Cc3ccccc3)c(-c3ccc(F)cc3)nc21
  A = 13 | B = 0.65 | C = -7.3 | D = i | E = 7 | F = 8 | G = -0.6 | H = x | I = -62%
(22) CN1CCN(Cc2nc3ccccc3c(=O)n2Cc2nc(-c3cccc([N+](=O)[O-])c3)cs2)CC1
  A = 6.5 | B = 0.67 | C = 6.4 | D = i | E = -1 | F = 6 | G = 4.5 | H = x | I = -6%
(23) Cc1ccc2nc(N3CCN(c4ccccc4F)CC3)c(C=O)c(=O)n2c1
  A = 2.2 | B = 0.67 | C = -3.6 | D = i | E = x | F = x | G = x | H = 26 | I = 6%
(24) CC(C)CNS(=O)(=O)c1ccc(CCC(=O)N2CCCC2)cc1
  A = -0.7 | B = 0.68 | C = -1.8 | D = i | E = 13 | F = 2 | G = -2.0 | H = -1 | I = -5%
(25) C[C@@H]1CN([C@@H](C)CO)C(=O)c2cc(NC(=O)Cc3ccccc3)ccc2O[C@@H](C)CCCCO[C@H]1CN(C)C(=O)Cc1ccccc1
  A = x | B = x | C = 5.9 | D = i | E = -2 | F = -6 | G = 2.3 | H = x | I = x
(26) COc1ccc2c3c([nH]c2c1)[C@@H](CO)N(C(=O)CN(C)C)CC31CN(Cc2ccccc2)C1
  A = x | B = x | C = 15 | D = i | E = 1 | F = 1 | G = 3.7 | H = x | I = x
(27) C[C@@H]1CN([C@H](C)CO)C(=O)c2cccc(NS(=O)(=O)c3cccs3)c2O[C@H]1CN(C)C(=O)Nc1ccc(F)cc1
  A = x | B = x | C = -1.8 | D = i | E = -1 | F = 0 | G = -0.6 | H = x | I = x
(28) COc1ccc(NC(=O)c2cc(C)nc3ccccc23)cc1S(=O)(=O)N1CCOCC1
  A = 0.9 | B = 0.64 | C = 5.4 | D = i | E = 12 | F = 8 | G = 2.2 | H = -1 | I = -2%

# 2 compounds from above with just Ecoli growth:
entry	smiles	Ecoli growth
3	CCCCn1c(=O)c(CCC(=O)OC(C)C(=O)Nc2cccc(Cl)c2Cl)nc2ccccc21 (stereo not drawn)	0.76
28	COc1ccc(NC(=O)c2cc(C)nc3ccccc23)cc1S(=O)(=O)N1CCOCC1	0.64

# An excerpt from above in order of count of non-hydrogen atoms, high to low.
# Letters: A = HNF4A DNA FP; B = Ecoli growth; C = AF4-AF9 inh; D = FGF22 binding; E = rRNA inh HTS; F = rRNA inh HTS OD600; G = rRNA inh HTS RFP; H = ALR inh; I = Vif TR-FRET
(25) C[C@@H]1CN([C@@H](C)CO)C(=O)c2cc(NC(=O)Cc3ccccc3)ccc2O[C@@H](C)CCCCO[C@H]1CN(C)C(=O)Cc1ccccc1
  A = x | B = x | C = 5.9 | D = i | E = -2 | F = -6 | G = 2.3 | H = x | I = x
(27) C[C@@H]1CN([C@H](C)CO)C(=O)c2cccc(NS(=O)(=O)c3cccs3)c2O[C@H]1CN(C)C(=O)Nc1ccc(F)cc1
  A = x | B = x | C = -1.8 | D = i | E = -1 | F = 0 | G = -0.6 | H = x | I = x
(6) CCC(c1nnnn1Cc1ccccc1)N(Cc1ccco1)Cc1cc2cc(OC)ccc2[nH]c1=O (stereo not drawn)
  A = 0.5 | B = 0.73 | C = x | D = x | E = x | F = x | G = x | H = 2 | I = 7%&7%
(22) CN1CCN(Cc2nc3ccccc3c(=O)n2Cc2nc(-c3cccc([N+](=O)[O-])c3)cs2)CC1
  A = 6.5 | B = 0.67 | C = 6.4 | D = i | E = -1 | F = 6 | G = 4.5 | H = x | I = -6%
(3) CCCCn1c(=O)c(CCC(=O)OC(C)C(=O)Nc2cccc(Cl)c2Cl)nc2ccccc21 (stereo not drawn)
  A = -0.8 | B = 0.76 | C = 2.0 | D = i | E = x | F = x | G = x | H = -4 | I = x
(1) COc1ccccc1N1CCN(S(=O)(=O)c2cc(-c3cc(C)no3)ccc2C(C)C)CC1
  A = -2.1 | B = 0.68 | C = -0.4 | D = i | E = 9 | F = 12 | G = 1.5 | H = -5 | I = 1%
(18) CCCNC(=O)C1(C)CCCN(Cc2ccc(-c3ccccn3)cc2)C1 (stereo not drawn)
  A = 5.6 | B = x | C = 2.3 | D = i | E = 17 | F = 33 | G = 2.0 | H = x | I = x
(14) COc1ccccc1C(=O)NCCc1c(C)[nH]c2c(C)ccc(F)c12
  A = -0.1 | B = 0.68 | C = -1.4 | D = i | E = 9 | F = 5 | G = 3.0 | H = 1 | I = x
(8) COc1ccc(CN2[C@@H](CC(=O)O)c3ccccc3S2(=O)=O)cc1
  A = 1.7 | B = x | C = -13 | D = i | E = -2 | F = 8 | G = -8.5 | H = 3 | I = x
(11) Brc1ccc2oc3c(N4CCOCC4)ncnc3c2c1
  A = -1.0 | B = 0.65 | C = -33 | D = i | E = 5 | F = 6 | G = 2.3 | H = x | I = -118%
(20) O=C(Cc1ccccc1)c1ccccn1
  A = 74 | B = x | C = 2.3 | D = i | E = 3 | F = 11 | G = 0.8 | H = x | I = 17%
